# Compound activity: PubChem BioAssay, Broad Institute
# Tg IFNy HTS – blocks Toxoplasma gondii growth in the presence of IFN-gamma | activity change, negative = inhibition, %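 (about 20 µM by stock and volumes)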 | hit rate 3.8% among 69,000 | Toxoplasma gondii growth in IFN-gamma-treated host cells; hits give low values; reference of the scale not given here;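 active = below -70%; inconclusive = fit judged invalid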;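 note: host cells are HeLa cells infected with Toxoplasma gondii; parasite growth read as luciferase light; one replicate is shown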
# Numbers without * were called inactive; i = inactive; ? = inconclusive; & = joins results of further samples. A portion of the library. The share of hits here may be higher or lower than overall.
no. | molecule | Tg IFNy HTS
1 | O=C1CC2(CCNC2)CN1c1ccc2c(c1)OCO2 (stereo not drawn) | 22
2 | Cc1noc(-c2ccc(N(C)Cc3ccncn3)nc2)n1 | -11
3 | COC(=O)C1SCCN1C(=O)c1cc(-c2ccc(Cl)cc2)oc1C (stereo not drawn) | -5
4 | COc1cc(F)c(-c2c(-c3ccccc3)ncn2CCCO)cc1OC | -4
5 | N#Cc1ccc(N2CCN(S(=O)(=O)c3cccc4nonc34)CC2)cc1 | -9
6 | Cn1nnnc1SCC(=O)N1Cc2cnc(C(C)(C)C)nc2C1 | -17
7 | O=C(c1ccccc1)n1ccc(-c2cccs2)n1 | -23
8 | Cc1nc(-c2ccccc2)c(C(=O)N(C)Cc2snnc2C)s1 | 9
9 | Cc1cc(N(C)CC2CCN(CCO)CC2)nc(-c2ccccc2)n1 | -9
10 | COc1cc2cc(C#N)c(SCC(=O)NCc3ccc4c(c3)OCO4)nc2cc1OC | 52
11 | C[C@@H]1CCCCO[C@H](CN(C)S(=O)(=O)c2cn(C)cn2)[C@H](C)CN([C@@H](C)CO)C(=O)c2cc(NC(=O)Nc3cccc4ccccc34)ccc2O1 | i
12 | Cc1cc(NC(=S)NC(=O)c2cccs2)ccc1-c1cc2ccccc2oc1=O | -80*
13 | O=C(CN1CCc2ccccc21)Nc1scc2c1c(=O)oc1ccccc12 | 69
14 | O=C(O)CCn1c(C2CCCCC2)n[nH]c1=O | -9
15 | Cc1ccc(C)c(OCC(=O)N2CC[C@@H](O)C2)c1C | 1
16 | CC(C)[C@H]1C(=O)NCCC=CC[C@H](C)Oc2ccccc2C(=O)N1C (mixture of isomers) | 9
17 | COC(=O)c1sc2cc(-c3ccc(F)cc3)sc2c1C | 31
18 | c1cc2c3c(cccc3c1)NC1(CCCCC1)N2 | 14
19 | CN(C)C(=O)CNC(=O)c1cc(-c2cnc(N3CCOCC3)nc2)cn1CC1CC1 | 43
20 | CC(C)CS(=O)(=O)N1C[C@H]2C[C@H](C(=O)NCc3ccccc3)[C@@H](C1)O2 | 0
21 | O=C(C[C@H]1CC[C@H]2[C@@H](COC[C@H](O)CN2C(=O)Nc2ccc(F)cc2)O1)NC1CCC1 | 11
22 | O=C(C1CCOCC1)N1CC(=O)N2[C@H](C1)[C@@H](c1ccc(/C=C/c3ccccc3)cc1)[C@@H]2CO | -46
23 | COCC(=O)Nc1cc(C(=O)N2CCN(c3ccc(Cl)cn3)CC2)c2c(c1)nc(C1CCC1)n2C | 7
24 | CCS(=O)(=O)N1CCC2(CC1)OC(=O)C(C)=C2C(=O)Nc1ccc(Br)cc1F | -12
25 | CCc1c(C)nn(CC(=O)N2CCC3(CCCO3)CC2)c1C | -51
26 | Cc1[nH]c2ccc(Cl)cc2c1CCNC(=O)C1CC2(CCNCC2)CN1 (stereo not drawn) | 9
27 | COc1cccc(-c2ccc3c(c2)[C@@H]2[C@@H](CCN2S(=O)(=O)C2=NC(C)C=N2)[C@H](CO)N3C)c1 (stereo partly drawn) | -55
28 | CCCN1C(=O)CCc2cc(NC(=O)C(CC)c3ccccc3)ccc21 (stereo not drawn) | -82*
29 | O=C(Cn1ncc2c(N3CCN(c4ccccn4)CC3)ncnc21)Nc1ccc(Cl)cc1F | 30
30 | COCCCN1C(=O)N(Cc2ccccn2)C(=O)C12CCN(Cc1ccc(SC)cc1)CC2 | -7
31 | CN(Cc1ccc(-c2ccn[nH]2)s1)Cc1cccc2ncccc12 | -47
32 | COCC1c2c(cnn2CC2CC2)CCN1Cc1nc(C)cs1 (stereo not drawn) | 7
33 | Oc1ccccc1C1N=C(c2ccccc2)NC(c2ccccc2)=N1 | 11
34 | COc1ccc(NC(=O)c2c(O)c3cccnc3n(-c3ccccc3)c2=O)cc1 | -1
35 | CCOC(=O)c1c(-c2ccccc2)noc1C(C)=O | 20
36 | CCN1c2ccc(F)cc2C(=O)NC12CCN(C(=O)c1ccccc1C)CC2 | 51
37 | Cc1ccc(S(=O)(=O)N2CCC3(CCCN(Cc4c(C)noc4C)C3)C2)cc1 (stereo not drawn) | -15
38 | Cc1ccc(C(=O)N(C)[C@@H](C)C(=O)O)cc1NC(=O)C1CCCC1 | 4
39 | O=C(c1cc(C2CC2)on1)N1CCC2(CCCO2)CC1 | 11
40 | COCCN1CC[C@@]2(CN(C3CCOC3)C[C@H]2c2ccccc2)C1=O (stereo partly drawn) | -35
41 | Cc1sc(NC(=O)C(C)C)c(C(=O)N[C@@H]2C[C@@H](CO)N(C)C2)c1C | 0
42 | CCN1C(=O)C(c2ccc(F)cc2)C2(CCN(C(=O)C(C)C)CC2)C1=O (stereo not drawn) | -7
43 | COc1ccccc1-c1nc(Cn2nnc(C(=O)Nc3cc(C)cc(C)c3)c2C)c(C)o1 | -1
44 | COCC(=O)NCc1cc(=O)n2c(n1)CN(Cc1cccs1)CCC2 | 19
45 | Cn1cc(C[C@H]2[C@@H](O)CCN2C(=O)Cc2ccc(F)cc2)cn1 | -11
46 | COc1ccc(-c2ccc(N)nc2)c2ccc(C)nc12 | -1
47 | Cc1ccc2c(c1)c1nc3ccccc3nc1n2C | -63
48 | CCN1CC[C@@]2(C(=O)N3CCCC3)CCN(S(=O)(=O)c3ccccc3)CC[C@H]12 | -2
49 | Cc1noc(C)c1C(=O)N(C)C[C@H]1OCc2ccccc2-c2ccccc2C(=O)N([C@@H](C)CO)C[C@@H]1C | -1
50 | Cc1nc(-c2ccccc2)sc1CCNS(=O)(=O)c1ccccc1F | i

# Of the compounds above, these contain an aryl methoxy group.
no. | molecule | Tg IFNy HTS
4 | COc1cc(F)c(-c2c(-c3ccccc3)ncn2CCCO)cc1OC | -4
10 | COc1cc2cc(C#N)c(SCC(=O)NCc3ccc4c(c3)OCO4)nc2cc1OC | 52
27 | COc1cccc(-c2ccc3c(c2)[C@@H]2[C@@H](CCN2S(=O)(=O)C2=NC(C)C=N2)[C@H](CO)N3C)c1 (stereo partly drawn) | -55
34 | COc1ccc(NC(=O)c2c(O)c3cccnc3n(-c3ccccc3)c2=O)cc1 | -1
43 | COc1ccccc1-c1nc(Cn2nnc(C(=O)Nc3cc(C)cc(C)c3)c2C)c(C)o1 | -1
46 | COc1ccc(-c2ccc(N)nc2)c2ccc(C)nc12 | -1

# The list goes on:
no. | molecule | Tg IFNy HTS
51 | COCC1COCCC12CCN(C(=O)CCc1ccccc1)CC2 (stereo not drawn) | 21
52 | CC(C)N1C2CCN(C(=O)c3ccoc3)CC2C[C@H]1CN1CCCC1 (stereo partly drawn) | -1
53 | CCCS(=O)(=O)N1CCC2OCCCC2(COCC2CC2)C1 (stereo not drawn) | -6
54 | COCC(=O)N1CCO[C@]2(CCC[C@@H]2COCc2ccccn2)C1 | -8
55 | O=S(=O)(NCc1ccccc1)N(Cc1ccccc1Cl)C1CC1 | -8
56 | CO[C@H]1CN(C)C(=O)c2cc(NC(=O)NC3CCCCC3)ccc2OC[C@@H](C)N(CC2CCOCC2)C[C@H]1C | -3
57 | Cc1cccc(-c2nc(Cn3nnc(C(=O)NCc4cccc(Br)c4)c3C)c(C)o2)c1 | -98*
58 | COCc1cc(CN2CCN(c3nccc4occc34)CC2)ccc1OC | 148
59 | C[C@H]1CCCCO[C@H](CN(C)C(=O)CCCN(C)C)[C@@H](C)CN([C@@H](C)CO)C(=O)c2cc(NS(=O)(=O)c3ccc(Cl)cc3)ccc2O1 | 1
60 | CCCc1nc(-c2nc(CC3CCN(C)CC3)no2)cs1 | -6
61 | COCC(=O)NC1Cc2ccc(S(=O)(=O)NCCc3c(C)nn(C)c3C)cc2C1 (stereo not drawn) | -2
62 | CC(C)(C)[S@](=O)N1Cc2cc(C(=O)N3CCOCC3)nc(-c3cccc(-c4ccc(C#N)cc4)c3)c2[C@@H]1CCO | 45
63 | O=C(CCc1ccccc1)NCCc1csc(-c2cccc(F)c2)n1 | -29
64 | O=C1N(Cc2ccccn2)C(=O)C2(CCN(Cc3c(F)cccc3Cl)CC2)N1Cc1ccccc1 | -73*
65 | O=C1NCC2(CCCN(C(=O)Cc3cccnc3)CC2)O1 (stereo not drawn) | -1
66 | CC(C)(O)C#Cc1ccc(C(=O)N(Cc2ccsc2)CC2CCCO2)o1 (stereo not drawn) | ?
67 | Cc1cc(=O)oc2cc(CN(C)C(C)c3ccccn3)ccc12 (stereo not drawn) | -7
68 | CCCC(=O)N1CC2(C1)CN(Cc1ccccc1F)[C@H](CO)c1c2c2ccc(OC)cc2n1C | -4
69 | C=C(C)[C@@H]1CC=C(CN2CCC3(CC2)C(=O)N(CC)C(=O)N3CCC(C)C)CC1 | -13
70 | N#C[C@H]1[C@H](c2ccc(C3=CCCCC3)cc2)[C@H](CO)N1C(=O)CN1CCOCC1 | 12
71 | C=CCn1c2ccccc2c2nnc(SCCCC(=O)c3ccc4c(c3)OCCO4)nc21 | 14
72 | COC(=O)c1cc(C)nc(Sc2ccccc2NC(=O)c2ccccc2)n1 | -10
73 | N#Cc1cnc(SCc2cc(=O)[nH]c3ccccc23)nc1N | -101*
74 | Cc1ccc(-c2noc(C3CCN(C(=O)C4CCCCC4)CC3)n2)o1 | 27
75 | COC(=O)c1c(NCc2ccc(C(F)(F)F)cc2)c2cc(F)ccc2[nH]c1=O | -65
76 | CC(=O)N1CC(=O)N(c2cccnc2)CC12CCN(c1ncccn1)C2 (stereo not drawn) | 10
77 | O=c1[nH]nc(Sc2ncccc2C(F)(F)F)n1C1CCCCC1 | -17
78 | Cc1ccc(Oc2ccc(CN)cc2)cc1 | 28
79 | O=c1cc(-c2ccccc2)oc2cc(O)ccc12 | 28
80 | COc1ccccc1N1CCN(CCn2c(=O)[nH]c3c([nH]c4ccccc43)c2=O)CC1 | 12&7
81 | O=C(Cc1cccnc1)N1CC(=O)N2[C@H](CO)[C@H](c3ccc(C#CC4CCCCC4)cc3)[C@H]2C1 | -52
82 | CO[C@@H]1CN(C)C(=O)c2cc(NC(=O)NC(C)C)ccc2OC[C@H](C)N(C(=O)CN(C)C)C[C@@H]1C | 152
83 | Cn1c(CN2CCCC(Cc3nc4ccccc4[nH]3)C2)nc2ccccc21 (stereo not drawn) | 39
84 | CN1CCCC2(CC1)CCN(C(=O)CCc1ccccc1O)CC2 | 0
85 | Cc1ccc(NC(=O)COC(=O)c2ccco2)c(C)c1 | -17
86 | Cc1cccc(NC(=O)N2CCC[C@@]3(C(=O)NCC4CC4)CN(c4ncccn4)C[C@H]3C2)c1 | 8
87 | C/C=C/c1ccc(C2[C@H]3CNC[C@@H]2N3Cc2ccccc2C(F)(F)F)cc1 (stereo partly drawn) | -28
88 | CCn1cc2c(n1)C(COCC1CC1)CN(Cc1ccc(OC)cc1)C2 (stereo not drawn) | -1
89 | Cc1cccc(NC(=O)C2C(c3ccccc3)=C2c2ccccc2)c1 | 4
90 | CC(=O)N1CCC2(CC1)OC(=O)C(C)=C2C(=O)Nc1ccccc1Br | -46
91 | O=C(Nc1ccccc1)N1CC2CN(Cc3ccc(C(F)(F)F)cc3)C2C1 (stereo not drawn) | -47
92 | Cc1ccc(NC(=O)CNCCOc2nonc2C)c(C)c1 | -6
93 | CCC(=O)N1CCCc2ccccc2C1c1ccnc(Oc2cccnc2)c1 (stereo not drawn) | -8
94 | O=S(=O)(NCCc1csc(-c2ccc(F)cc2)n1)c1ccc2c(c1)OCCO2 | -37
95 | Cc1noc(-c2cc(=O)n(CC(=O)NCc3ccc(Cl)cc3)c3ccccc23)n1 | 63
96 | Cc1ccccc1NC(=O)Cn1c(=O)cc(C(=O)N2CCCC2)c2ccccc21 | 16
97 | COCCN1CCOCC2(CCCN(C(=O)c3ccc4cc[nH]c4c3)C2)C1 (stereo not drawn) | -15
98 | C=C(C)CSc1[nH]c(=O)cc(C)c1C#N | 66
99 | CC(NC(=O)c1cnnn1-c1ccccc1)c1ccccc1-n1cccn1 (stereo not drawn) | 0
100 | O=C(c1ccc2ccc(N3CCN(c4ncccn4)CC3)n2c1)N1CCCCC1 | -6

# Later entries:
no. | molecule | Tg IFNy HTS
101 | CCC(c1nc2ccc(C)cc2[nH]1)n1ccnc1-c1ccoc1 (stereo not drawn) | 8
102 | COc1ccccc1C(C)N(C)C(=O)c1cc(C)c(C)c(S(N)(=O)=O)c1 (stereo not drawn) | 0
103 | COC1CC2(CCN(CC(=O)O)CC2)c2cc(F)ccc21 (stereo not drawn) | -2
104 | C/C=C/c1ccccc1[C@H]1[C@@H](CO)N(c2nc(CC)cs2)[C@H]1C#N | 11
105 | COc1cccc(Cn2cccc3cc(C(F)F)nc2-3)c1 | 34
106 | CN(C)c1ccc(CNC(=O)CN2C(=O)CCc3cc(Br)ccc32)cc1 | 40
107 | COc1ccc(-c2ccc(C(=O)N(Cc3nccn3C)C3CC3)o2)cc1 | 12
108 | O=C(Cn1c(=O)ccc2cc(S(=O)(=O)N3CCCC3)ccc21)Nc1ccccc1F | 102
109 | CC[C@H](CC#N)OC(=O)N[C@@H](C)c1cccc(NC(=O)Nc2ccc(-c3cnco3)c(OC)c2)c1 | -82*
110 | CC(=O)N1CC2(CCN(C(=O)C3CC3)CC2)CC1C(=O)O (stereo not drawn) | 206
111 | O=C(c1cc2ccccc2[nH]1)N1CCc2nc(-c3ccc(Cl)cc3)ncc2C1 | 139
112 | Cc1ccc(C2=NC3(CCN(CC(=O)Nc4cc(Cl)ccc4C)CC3)NC2=O)cc1C | 37
113 | COc1ccc(CCNC(=O)N2CC[C@@H]3Oc4ccccc4S(=O)(=O)N[C@@H]3CC2)cc1 | 12
114 | C/C=C/c1ccc([C@@H]2[C@H](CO)N3C(=O)CN(C(=O)Nc4cccc(OC)c4)C[C@@H]23)cc1 | 9
115 | COc1c(F)cccc1C(=O)N1CCC(O)(CN(C)C)C1 (stereo not drawn) | 5
116 | CC(C)CNC(=O)CC1CC2(CCN(Cc3cnn(C)c3)CC2)Oc2ccccc21 (stereo not drawn) | -39
117 | CCCCNC(=O)N1CCC2(CC1)COCCN(Cc1ccncc1)C2 | -12

# 4 of these compounds, reformatted:
30) COCCCN1C(=O)N(Cc2ccccn2)C(=O)C12CCN(Cc1ccc(SC)cc1)CC2
  Tg IFNy HTS: -7
34) COc1ccc(NC(=O)c2c(O)c3cccnc3n(-c3ccccc3)c2=O)cc1
  Tg IFNy HTS: -1
50) Cc1nc(-c2ccccc2)sc1CCNS(=O)(=O)c1ccccc1F
  Tg IFNy HTS: i
43) COc1ccccc1-c1nc(Cn2nnc(C(=O)Nc3cc(C)cc(C)c3)c2C)c(C)o1
  Tg IFNy HTS: -1
